TRPML1 blocker = qHTS for Inhibitors of the Human Mucolipin Transient Receptor Potential 1 (TRPML1); Mucolipin-1 (Homo sapiens), Q9GZU1; TRPML1-inducible cells, Ca2+ dye fluorescence, FDSS; active compounds read low; inhibition of EC80 agonist-evoked calcium signal; activity change, negative = inhibition, % (concentration not given with the values); 390,000 compounds, 0.02% hits; in the data active means activity change below about -50%; inconclusive means about -30% to -50%; inactive means above about -30%;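 also: stimulus is agonist 54-4 at its EC80 concentration; % is scaled to controls: 0 for no effect and ±100 for the full control effect; the text of the record puts the active cut at -80%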
Target sequence (Q9GZU1 whole entry, looked up): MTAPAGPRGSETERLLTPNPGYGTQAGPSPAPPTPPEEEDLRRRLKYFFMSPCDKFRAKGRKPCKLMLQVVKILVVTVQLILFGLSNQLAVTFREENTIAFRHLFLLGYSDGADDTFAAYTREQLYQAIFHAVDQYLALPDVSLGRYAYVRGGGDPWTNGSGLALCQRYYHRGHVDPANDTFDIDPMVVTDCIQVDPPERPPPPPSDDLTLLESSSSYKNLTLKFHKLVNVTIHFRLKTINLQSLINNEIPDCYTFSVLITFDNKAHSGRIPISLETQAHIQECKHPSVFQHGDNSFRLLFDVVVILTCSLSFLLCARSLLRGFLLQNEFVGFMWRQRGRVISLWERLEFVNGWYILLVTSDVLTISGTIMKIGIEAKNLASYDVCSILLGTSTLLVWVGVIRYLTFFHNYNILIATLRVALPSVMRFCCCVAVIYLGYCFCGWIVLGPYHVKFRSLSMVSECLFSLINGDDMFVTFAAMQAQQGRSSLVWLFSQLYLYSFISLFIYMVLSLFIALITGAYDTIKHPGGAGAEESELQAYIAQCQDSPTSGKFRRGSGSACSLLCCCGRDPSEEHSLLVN
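Calcium fluorescence in TRPML1-DL cells induced overnight with Tet: a 110 s read after compound pin addition, then a 110 s antagonist read after challenge with 54-4 at 4 uM final (EC80).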
D2 agonist = Beta-Arrestin HTS for Positive Allosteric Modulators of the Human D2 Dopamine Receptor: Agonists; D(2) dopamine receptor (Homo sapiens), P14416; DiscoveRx PathHunter D2 beta-arrestin, luminescence, 90 min; 100% = 57 uM dopamine signal; activation, % (test concentration not listed); 360,000 compounds, 0.084% hits; AID 624465, 2012; in the data active = activation above about 40%; inconclusive = about 15% to 40%; inactive = below about 15%; also: compound concentration not given in the record; the text of the record calls up to 30% inactive
Target sequence (P14416 whole entry, looked up): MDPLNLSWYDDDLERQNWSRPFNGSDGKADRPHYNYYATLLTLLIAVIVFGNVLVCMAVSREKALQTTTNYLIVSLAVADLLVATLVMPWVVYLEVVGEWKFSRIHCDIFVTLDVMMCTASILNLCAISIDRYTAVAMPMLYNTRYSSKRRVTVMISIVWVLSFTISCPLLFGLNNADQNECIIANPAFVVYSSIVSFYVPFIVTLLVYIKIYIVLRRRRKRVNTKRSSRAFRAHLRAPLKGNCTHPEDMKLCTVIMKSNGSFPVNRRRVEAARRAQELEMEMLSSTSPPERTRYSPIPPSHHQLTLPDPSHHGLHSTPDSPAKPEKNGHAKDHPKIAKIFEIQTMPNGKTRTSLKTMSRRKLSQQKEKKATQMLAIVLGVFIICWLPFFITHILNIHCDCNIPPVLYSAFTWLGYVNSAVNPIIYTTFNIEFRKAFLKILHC
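Agonist mode: compounds alone added to overnight-plated D2 PathHunter cells for 90 min at 37 C, with 57 uM final dopamine (EC100) defining full response. Beta-arrestin recruitment detected by chemiluminescent reagent, read after 1 h at ambient temperature.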
PINK1 expr mod = A Quantitative High throughput Screen to Identify Chemical Modulators of PINK1 Expression; PINK1 immunofluorescence, high-content cytometry, 24 h; Potency, µM (highest dose often 76.6 µM), inactives show at the highest dose activation (PINK1 increase), actives largely listed as activators; 410,000 compounds, 0.2% hits; active = well fitted activation curve with a large enough effect; inconclusive = small, poorly fitted or top-dose-only effect; inactive = flat fitted curve, though single readings scatter; cell line not stated here;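 also: potency is read from the fitted curve at half-maximal effect; % of control where 0% means no effect; nearly all actives have a fitted effect of over 65% in size; a mitochondrial uncoupler was the plate control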
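Decision-based qHTS: stable cells, 24 h exposure to five compound concentrations, CCCP as control. Fixed cells stained for PINK1 plus nuclear, mitochondrial and cell markers, cytometer read.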
CtBP-E1A inh = qHTS Assay for Inhibitors of the CtBP/E1A Interaction; CtBP / adenovirus E1A interaction (AlphaScreen); AlphaScreen GST-E1A/His-CtBP binding, 1536-well; active compounds read low; control for the full effect not named in the record; activity change, % (concentration not given with the values); 340,000 compounds, 0.49% hits; in the data active means activity change below about -65%; inconclusive means about -30% to -65%; inactive means above about -30%; also: % is scaled to controls: 0 for no effect and ±100 for the full control effect
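Protein mix (5X: 125 nM each GST-E1A, His-CtBP) was incubated with pinned compound 2 h at 37 deg C in dark, in 50 mM Tris pH 8.0 buffer with 300 mM NaCl. Glutathione donor and nickel acceptor beads followed; AlphaScreen signal read after 1 h.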
Six1-Eya2 inh = qHTS Assay for Inhibitors of the Six1/Eya2 Interaction. AlphaScreen GST-Six1/His-Eya2 binding, biochemical; active compounds read low; control for the full effect not named in the record. activity change, % (no concentration beside the values). 360,000 compounds, 0.56% hits; in the data active = activity change below about -65%; inconclusive = about -30% to -65%; inactive = above about -30%; also: % is scaled to controls: 0 for no effect and ±100 for the full control effect
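Six1/Eya2 binding was read as AlphaScreen signal after compounds were pinned into GST-Six1 plus His-tagged Eya2 (5X stock 250/500 nM) in pH 8.0 Tris/NaCl/TCEP buffer, beads added, then incubated 1 h, 37 C, dark.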
TRPML1 ag = qHTS for Agonists of the Human Mucolipin Transient Receptor Potential 1 (TRPML1). TRPML1-expressing cells, Ca2+ dye fluorescence, FDSS; host cell line not named in the record; reference of the full effect not given here. Mucolipin-1 (Homo sapiens), Q9GZU1. AID 624414, 2012. 410,000 compounds, 0.12% hits. activation, % (test concentration not listed); in the data active = activation above about 50%; inconclusive = about 30% to 50%; inactive = below about 30%; also: 0% is about no effect; the text of the record puts the active cut at 80%
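Agonist activity was taken from a 110 s kinetic Ca2+ dye read on the FDSS after pinning compounds onto TRPML1-DL cells. The cells were seeded at 1,500/well with Tet inducer, incubated about 16 h, then dye-loaded at room temperature.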
Numbers without * were called inactive; ? = inconclusive; / = not tested or not shown; [ ] = remark or other dose.

mol	PINK1 expr mod	Six1-Eya2 inh	D2 agonist	TRPML1 blocker	TRPML1 ag	CtBP-E1A inh
COc1ccc(Br)cc1C(=O)N/N=C/c1cccnc1	3.6%	5	-2.7	-9	1.2	3
Nc1nc(NCCCN2CCOCC2)nc(Nc2ccccc2F)c1[N+](=O)[O-]	2.1%	-3	-6.9	11	0.1	-20
CCN1CCCC1CNC(=O)Cn1cccc1C(=O)c1ccccc1 (centres undefined)	5.3%	-2	-3.6	-7	-0.7	1
CCCCONc1ncnc2nonc12	-0.3%	19	-2.1	-6	0.3	7
CC[N+](CC)=N/N=C1\C=CC[N+]([O-])=C1	-0.3%	-1	/	/	-0.7	1
COc1ccc(-c2cc(C(F)(F)F)nc(SCc3cccc(C(=O)O)c3)n2)cc1	4.6%[38.3 µM]	-4	0.5	30	0.4	10
O=C1C(=NO)CCCc2ccccc21	0.0%	4	-0.6	-10	-0.1	-2
O=C(Nc1ccccc1Cl)C1CCCN(S(=O)(=O)c2ccc(F)cc2)C1 (centres undefined)	-1.3%[38.3 µM]	0	0.6	3	-0.1	-4
O=C(NNC(=O)C1CC1)c1ccc(-c2ccccc2)cc1	0.1%[38.3 µM]	3	0.5	19	-0.5	10
O=C(COC(=O)c1ccccc1Nc1ccccc1)NCc1ccccc1Cl	?	4	0.5	16	2.4	9
CCCNC(=O)CN1CCC(c2nc3ccccc3[nH]2)CC1	0.8%	3	-3.2	13	5.9	/
COc1ccc(S(=O)(=O)Cc2ccc(C(=O)N3CCN(c4cccc(C)c4)C(C)C3)o2)cc1 (centres undefined)	13%	-10	2.9	-6	0.2	-5
COc1ccc(NC(=O)c2nnn(Cc3nc(-c4cc(Br)ccc4OC)oc3C)c2C)cc1	4.4%	/	/	-9	-0.5	/
CC(C)(C)CC(=O)NC(=S)NCCc1ccccc1	9.5%[38.3 µM]	9	2.0	-3	0.6	14
O=C(NNC(=O)c1cccs1)c1ccccn1	0.3%	-74*	1.0	-1	0.1	?
Cc1cc(NC(=O)CSCc2ccccc2)no1	1.7%	-1	-4.1	0	1.4	/
COc1ccc(N/C=C/C(=O)C(F)(F)F)cc1	-0.1%	11	-0.8	15	5.8	-5
CCOC(=O)CN1CC23C=CC(O2)C(C(=O)NCc2ccccc2OC)C3C1=O (centres undefined)	3.1%	27	-3.5	-2	0.4	11
CC(C)C(=O)N1CCN(c2ccc(NC(=O)c3ccco3)cc2Cl)CC1	2.9%	-1	11	-1	-0.5	7
O=C(Nc1ccc(C2CC2(Cl)Cl)cc1)c1cccc([N+](=O)[O-])c1 (centres undefined)	?	5	3.3	62	1.9	-5
COc1ccc(OC)c(NC(=O)Nc2ccc3c(c2)OCO3)c1	0.8%	-18	-0.3	19	1.0	-17
Cc1ccc(S(=O)(=O)NC(C)(C)CN2CCC(Cc3ccccc3)CC2)cc1	40µM*	3	-0.9	4	0.7	13
CCN(CC)C(=O)[C@H]1C[C@H](CC(=O)NCCc2ccccn2)C(=O)N2CCc3c([nH]c4ccc(Cl)cc34)[C@]12C	-0.4%	1	2.2	-9	-0.7	-1
COc1cc(/C=N/n2cnnc2)ccc1OCc1ccccc1	7.7%	1	-1.8	17	-0.4	-21
CC1(C)CC(NNCCC#N)=CC(=[N+]2CCCC2)C1	0.8%	6	-0.2	14	-0.5	/
Cc1cccc2sc(N(CCN(C)C)C(=O)c3cc(Cl)sc3Cl)nc12	?	-28	-0.3	8	1.9	1
CCOC(=O)CC(=O)CSc1nc(N)c(C#N)c(-c2ccc(F)cc2)c1C#N	6.6%[38.3 µM]	3	-1.7	-2	1.5	-2
O=C(C(c1ccccc1)c1ccccc1)N1CCCc2ccccc21	-0.3%	15	0.2	7	2.3	7
CCOC(=O)C1=C(COC(=O)C2CC(=O)N(c3ccccc3F)C2)NC(=O)NC1C (centres undefined)	2.5%	0	-0.6	0	1.1	3
C=CCc1cc(S(=O)(=O)c2ccc(O)c(CC=C)c2)ccc1O	1.1%	-1	-1.5	/	/	/

mol	PINK1 expr mod	Six1-Eya2 inh	D2 agonist	TRPML1 blocker	TRPML1 ag	CtBP-E1A inh
O=C(NNc1ccc([N+](=O)[O-])cc1)C1C2CCCCC21 (centres undefined)	5.0%	-2	-1.2	-15	-0.3	-2
O=C(CSc1nc2ccccc2c(=O)n1Cc1ccccc1)Nc1ccc(Br)cc1C(=O)O	1.0%	-1	4.1	13	0.6	4
Cc1ccc(CNC(=O)c2ccc(S(=O)(=O)Nc3c(C)n(C)n(-c4ccccc4)c3=O)cc2)cc1	-0.1%	6	4.0	-16	0.6	-22
CCOC(=O)C1=C(C)NC(C)=C(C(=O)OCC)C1/C=C/c1ccccc1	10%[38.3 µM]	14	-3.3	4	1.7	24
CCOc1ccc(Cl)cc1-c1cc(C(=O)Nc2ccc(C(C)C)cc2)[nH]n1	3.2%	1	-5.1	/	0.1	7
O=C(c1ccccc1[N+](=O)[O-])N1CCCN(C(=O)c2ccccc2[N+](=O)[O-])CC1	-1.9%	3	-0.3	-3	-0.6	2
Cc1sc2nc(SCC(=O)NCCOCCO)nc(N)c2c1C	6.0%	2	3.8	23	0.2	5
COc1cccc(NC(=O)Cn2c3ccc(F)cc3c3nc4n(c(=O)c32)CCCS4)c1	1.1%	4	2.5	10	-0.8	6
Cc1ccc(CC(=O)N2CCC(c3nc4c(nnn4Cc4ccccc4)c(=O)[nH]3)CC2)cc1	2.3%	0	-0.1	10	-0.4	-2
O=C1Cc2ccccc2C(=O)N1c1cccc(Cl)c1	0.8%	-4	2.6	-17	0.0	4
O=C(O)c1cc2c(N3CCC(Cc4ccccc4)CC3)ncnc2s1	1.9%	5	-3.5	53	1.3	-7
c1ccc(CSc2nnc(-c3c[nH]c4ccccc34)o2)cc1	3.2%	-3	0.5	-14	0.6	-3
Cc1ccc(C)c(Cn2c(C(C)NC(=O)c3ccc(F)cc3)nc3ccccc32)c1 (centres undefined)	3.8%	/	/	26	2.6	/
COc1ccc(OCC2CNC(=O)O2)cc1 (centres undefined)	0.0%	-3	-2.2	-1	-0.7	6
CCOc1ccc(C(C(=O)NC2CCCC2)N(Cc2ccccc2)C(=O)c2nsc(Cl)c2Cl)cc1 (centres undefined)	0.1%	-10	3.0	45	3.4	-5
O=C1NC(=Nc2ccc(F)cc2)SC1Cc1ccc(F)cc1 (centres undefined)	4.6%	-3	1.9	16	0.7	4
CC(CNC(=O)COc1ccc2c(c1)OCO2)c1ccccc1 (centres undefined)	-2.0%	-4	-4.6	8	0.9	-1
Cc1c2cnn(CC(=O)NC3CCCC3)c(=O)c2c(C)n1Cc1ccccc1	4.1%	0	4.3	5	-0.2	/
O=C(NCCC1=CCCCC1)C1CCCN(S(=O)(=O)c2cnc[nH]2)C1 (centres undefined)	0.0%	4	-5.6	-3	0.1	-3
O=C(Nc1c(O)c2ccccc2oc1=O)c1cccc(F)c1	4.1%	/	/	-13	0.0	/
Cc1ccc(OCCn2nnc3sc4c(c3c2=O)CCC(C(C)(C)C)C4)cc1 (centres undefined)	2.7%	/	/	0	2.1	/
CC(C)NC(=O)c1ccc2c3n(nc2c1)-c1ccccc1CO3	1.7%	-5	-3.3	-10	0.1	/
CCC(C(=O)Nc1cc(C)ccc1C)n1c(=O)c(C(F)(F)F)nc2ccccc21 (centres undefined)	-0.2%	/	/	-14	0.7	/
CCCc1cc(=O)[nH]c(SCC(=O)c2ccc(S(=O)(=O)N3CCCC3)cc2)n1	-0.1%	1	-2.1	-5	0.5	6
Cn1c(=O)c2c(nc(CN3CCN(C(=O)c4ccco4)CC3)n2CC(N)=O)n(C)c1=O	0.9%	-8	-4.0	20	0.8	-18
CC(=O)c1c(Nc2cccc(F)c2)oc(C)cc1=O	0.8%	24	0.2	1	0.5	6
O=C1CCN(Cc2ccccc2)N1	-2.3%	-6	-1.9	-11	0.6	-2
Cc1c(/C=N\NC(=O)c2csc3ccccc23)cnn1C	0.7%	-1	-1.9	24	0.1	-2
O=S(=O)(c1ccc2c(c1)oc1ccccc12)N1CCOCC1	0.7%	10	0.9	16	0.3	0
FC(F)(F)c1cnc2c(-c3ccccc3)n[nH]c2c1	0.7%	9	-3.7	-15	-1.3	0

2 of the compounds above, with two lines to a compound:
Results follow in this order: PINK1 expr mod | Six1-Eya2 inh | D2 agonist | TRPML1 blocker | TRPML1 ag | CtBP-E1A inh
O=C(COC(=O)c1ccccc1Nc1ccccc1)NCc1ccccc1Cl
  ? | 4 | 0.5 | 16 | 2.4 | 9
CCCNC(=O)CN1CCC(c2nc3ccccc3[nH]2)CC1
  0.8% | 3 | -3.2 | 13 | 5.9 | /

Other compounds
mol	PINK1 expr mod	Six1-Eya2 inh	D2 agonist	TRPML1 blocker	TRPML1 ag	CtBP-E1A inh
CCOC(=O)c1cn(Cc2cccc(Cl)c2)c2cc(C)nn2c1=O	2.2%	3	-4.7	-2	0.3	-3
O=C(NCCCN1CCCC1=O)C(=O)NCC1OCCN1S(=O)(=O)c1cc(F)ccc1F (centres undefined)	0.4%	5	2.4	-5	-0.8	4
NC(=O)c1cccc(C(N)=O)n1	0.6%	-11	-3.4	-9	-0.7	/
Nc1c(C(O)(C(F)(F)F)C(F)(F)F)cc(C(O)(C(F)(F)F)C(F)(F)F)c2ccccc12	8.8%	2	?	16	-0.5	6
CCCCn1cnc2c(SCc3ccc(Cl)cc3)nc(N)nc21	13%	3	6.3	10	-0.5	0
COc1ccc(C(CNC(=O)c2ccc3c(c2)C(=O)N(CCC(C)C)C3=O)N2CCOCC2)cc1 (centres undefined)	2.7%	-3	-3.1	-1	-1.0	-3
Cc1nc(Nc2ccccc2)sc1C(=O)Nc1ccccc1	-1.1%	0	0.6	3	-0.7	0
CCOc1ccc(NC(=O)CN(C)C(=O)CCc2nc3ccccc3c(=O)[nH]2)cc1OCC	1.2%	61	-2.3	-16	-0.3	-16
CCOc1ccc(CNC(=O)c2cccc(NC(=O)N3CCSc4ncccc43)c2)cc1OC	-1.1%	/	/	-26	0.8	/

Whole records, looked up by structure.
Record of CCOc1ccc(CNC(=O)c2cccc(NC(=O)N3CCSc4ncccc43)c2)cc1OC = PINK1 expr mod: -1.1%; Six1-Eya2 inh: /; D2 agonist: /; TRPML1 blocker: -26; TRPML1 ag: 0.8; CtBP-E1A inh: /
Record of COc1ccc(C(CNC(=O)c2ccc3c(c2)C(=O)N(CCC(C)C)C3=O)N2CCOCC2)cc1 (centres undefined) = PINK1 expr mod: 2.7%; Six1-Eya2 inh: -3; D2 agonist: -3.1; TRPML1 blocker: -1; TRPML1 ag: -1.0; CtBP-E1A inh: -3

Source: PubChem (National Center for Advancing Translational Sciences (NCATS))

Random draw from the library. About 1% of those tested had a hit in this group.
